Source: PubChem
NPYLR7 agonist – activates Aedes aegypti NPYLR7 receptor. HEK293T NPYLR7/Galpha15, GCaMP6s calcium fluorescence. activation, % at 10 µM. actives 0.15% (n = 270,000); in the data active means activation above about 40%;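 further: 0% = vehicle and 100% = reference agonist at the receptor; some compounds past the cut are filed as inactive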
NPYLR7 agonist max-min – recorded beside NPYLR7 agonist, whose call it bears; activation, %; measured here: Max-Min RFU normalised activation; some inactives read as strong as hits;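 span of the calcium signal over five minutes; 0% = vehicle and 100% = native peptide agonist; compound fluorescence can raise it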
The depositor's hits bear a star.

SMILES	NPYLR7 agonist	NPYLR7 agonist max-min
CCCc1cc(C(=O)N2CCc3onc(-c4cccc(F)c4)c3C2)ccn1	12	9
N#Cc1cccc(CN2CCN3C(C(=O)Nc4ccc(-n5cccc5)cc4)=COC3=NC2=O)c1	1	-2
Cc1nnc(NC(=O)CSc2ccc(-c3ccccn3)nn2)s1	-2	-9
COC(=O)c1ccc(-c2nc(CN3CCC[C@H]3C(=O)OC)c(C)o2)cc1	20	10
COc1ccc(S(=O)(=O)N(Cc2csc(COc3ccc(Cl)cc3)n2)C2CC2)cc1	19	26
COc1ccc2c(CN(C)Cc3cccs3)cc(=O)oc2c1	0	14
Cc1c(S(=O)(=O)CCNC(=O)NCc2ccccc2)c2ccccc2n1C	0	12
N=C1C(c2ccccc2)C(=O)CN1c1ccc(C(=O)O)cc1 (centres undefined)	-7	-9
Cn1nc(CN2CCCn3cncc3C2)c2c(Cl)cccc21	3	1
COc1ccc(OC)c(C2CCN(C(=O)C3(N)CC3)C2)c1 (centres undefined)	-2	-6
Oc1ccc2ccncc2c1CN(Cc1ccccc1F)C1CC1	3	0
CC(O)(CNC(=O)Nc1ccc(C(C)(C)C)cc1)CN1CCOCC1 (centres undefined)	11	12
COc1ccc(-c2cc(C(=O)O)n3nc(-c4ccc(Cl)cc4)cc3n2)cc1	-6	-3
CCOC(=O)Cn1c(C)cn2c3c(=O)n(C)c(=O)n(C)c3nc12	-8	-7
N[C@@H]1CC[C@@H](NC(=O)c2cccc(-n3cnnc3)n2)C1	-1	-3
COc1cccc(/C=C2N=C(/C=C/c3cccc(Cl)c3Cl)OC\2=O)c1OC	-1	-5
Cc1ccsc1[C@@H]1CCN(C(=O)c2cccc(-c3ncc[nH]3)c2)C[C@H]1O	4	0
CCC(C)(C)NC(=O)CN1c2ccccc2N(C)CCC1C (centres undefined)	4	0
CCOC(=O)CNC(=O)CSc1nc2c(c(=O)n1Cc1ccccc1)SCC2	2	-7
Fc1ccc(CN2CCCn3cccc3C2c2ccccc2)cc1F (centres undefined)	-2	2
Cc1ccc(-c2csc3ncnc(SCCC(=O)O)c23)cc1	2	-3
CCOC(=O)CCCC(=O)N1CCN(CC(OCc2cccc(C)c2)c2ccc(Cl)cc2)CC1 (centres undefined)	-3	-4
COC(=O)CN1CC(=O)NC(=O)C1	3	8
CSc1ncccc1C(=O)N1CCN(C(c2ccccc2)c2ccc(Cl)cc2)CC1 (centres undefined)	-5	9
CCc1ccc2nc(N3CCN(C(=O)C4CCCN4S(=O)(=O)c4cccs4)CC3)sc2c1 (centres undefined)	-5	-6
Cc1cc(C)n(C2CN(C(=O)CCc3c(C)nn(C)c3C)C2)n1	3	1
CCN(CC)S(=O)(=O)c1ccc(OC)c(NC(=O)c2csc3c2CCCC3)c1	12	11
CCOc1ccc(-c2ccc3nnc(SCC(=O)N4CCCCC4)n3n2)cc1	-19	-18
O=C(N/N=c1\oc2ccccc2cc1-c1nc2ccccc2[nH]1)c1ccc([N+](=O)[O-])cc1	-5	-14
Fc1ccccc1C1c2cccn2CCCN1Cc1cccc(Cl)c1 (centres undefined)	-6	25
O=C(NCCc1ccccn1)C1CC=CCC1C(=O)N1CCc2c([nH]c3ccccc23)C1 (centres undefined)	-11	-17
CCCn1c(=O)c2c(nc3n(C(C)CC)c(C)c(C)n23)n(C)c1=O (centres undefined)	-4	-2
C=CCCC(O)CN(Cc1cc(OC)cc(OC)c1)C(C)C (centres undefined)	5	11
Cc1ccc2nc(C)c(NC(=O)c3ccccc3I)c(=O)n2c1	5	1
CC(Oc1cccc(F)c1)C(=O)NCc1cccnc1 (centres undefined)	-1	-1
O=c1nc(SCc2ccccc2Cl)c2c(n1Cc1ccncc1)CCC2	1	-2
CCOC(=O)CC1CCCCN1Cc1nc(-c2cnccn2)no1 (centres undefined)	9	2
O=c1c(-c2ccc3c(c2)OCCO3)coc2cc(OC3OC(CO)C(O)C(O)C3O)ccc12 (centres undefined)	-3	-13
CCN(CC)C1=NC=CC(c2ccccc2)=CC1Cc1ccccc1 (centres undefined)	0	-1
CN1C(=O)NC(c2ccc(C(F)(F)F)cc2)C2=C1CN(Cc1ccccc1)C2=O (centres undefined)	2	7

For convenience, two of the compounds above:
SMILES	NPYLR7 agonist	NPYLR7 agonist max-min
O=c1nc(SCc2ccccc2Cl)c2c(n1Cc1ccncc1)CCC2	1	-2
CCOC(=O)CC1CCCCN1Cc1nc(-c2cnccn2)no1 (centres undefined)	9	2

Going on with the list:
SMILES	NPYLR7 agonist	NPYLR7 agonist max-min
O=c1[nH]c(CSc2cccc[n+]2[O-])nc2ccccc12	-1	-3
COc1ccc(C(=O)Nc2cc(-c3nc4ccccc4o3)ccc2Cl)cc1OC	0	-1
COc1ccc(C(=O)N2C(C(=O)O)COC23CCN(C(=O)c2cccs2)CC3)cc1 (centres undefined)	13	20
COc1ccc(CN2C(=O)NC(C)(c3ccc(F)c(F)c3)C2=O)cc1F (centres undefined)	0	5
CCCC1OCC2(CO1)COC(CCC)OC2 (centres undefined)	4	6
COc1ccc(CN(Cc2cccc(C(F)(F)F)c2)Cc2nc(C(=O)O)co2)c(OC)c1	-3	-3
CC(C)(C)NC(=O)NCC1CN(c2ccc3c(c2)OCO3)C(=O)O1 (centres undefined)	3	8
CCc1nc2ccc(C(=O)NCCc3ccccn3)cn2c1N(CC)C(=O)CCC1CCCC1	6	6
CCNC(=O)N(CCN1CCCCC1)CC(=O)N(Cc1ccc(F)cc1)Cc1ccc(C)s1	-5	-4
CCOCCOC1CCCN(C(=O)CCc2ccccc2)C1 (centres undefined)	-7	-3
O=S1(=O)c2cccc3cccc(c23)N1CC1CN(Cc2ccccc2)CCO1 (centres undefined)	4	1
CC1CN(CCc2ccccc2)c2nc3c(c(=O)n(Cc4ccccc4F)c(=O)n3C)n2C1 (centres undefined)	1	27
O=C(c1ccccc1)N1CCCc2ccc(NS(=O)(=O)c3ccc(F)cc3F)cc21	-4	4
CCOCCCn1c(SCc2ccc(C(F)(F)F)cc2C(F)(F)F)nc2cc(S(=O)(=O)N3CCCC(C)C3)ccc21 (centres undefined)	11	4
COCc1nc(N2CCc3cc(OC)c(OC)cc3C2C)c2cnn(C)c2n1 (centres undefined)	6	4
COCCNC(=O)c1csc(COc2cccc(Cl)c2)n1	1	7
O=C(CCC1CCN(C(=O)C(=O)c2ccco2)CC1)NCc1cccc(Cl)c1	7	6
CO/N=C(/C(=O)NCCc1ccc(C)cc1)c1csc(NC=O)n1	1	0
CCCCN(C(C)=O)c1c(CC)nc2ccc(C(=O)Nc3ccc(OC)c(OC)c3)cn12	10	1
CC(NS(=O)(=O)c1ccc(N)cc1)C1CC2CCC1C2 (centres undefined)	3	11
CCOC(=O)CCC(=O)N1CCN(C(C(=O)N(CC)CC)C2CCCC2)CC1 (centres undefined)	4	9
CC(C)N(CC(=O)N(Cc1ccc(F)cc1)Cc1ccco1)C(=O)Nc1cccc(Br)c1	-11	-16
Cc1cc(C(=O)N(CCO)C2CC2)c(C)n1-c1nccs1	-6	-9
C=CCn1c(=NC(=O)c2cccc(S(C)(=O)=O)c2)sc2cc(OC)c(OC)cc21	6	5
O=[N+]([O-])c1cccc(CN2CCCn3cccc3C2c2ccccc2F)c1 (centres undefined)	1	4
FC(F)C(F)(F)Oc1cccc(Nc2nccn3c(-c4ccc5ccccc5c4)cnc23)c1	-1	-8
CC(=O)c1ccc(C(=O)NCC2(N(C)Cc3ccccc3)Cc3ccccc3C2)s1	2	-2
Cc1cc(C)nc(NC2CC(C)(C)NC(C)(C)C2)n1	7	4
CCC(CC)(NC(=O)Nc1nncs1)c1ccc(Cl)c(Cl)c1	-5	-5
O=C(CN1CCOC2CCCCC21)NC1CCCc2ccccc21 (centres undefined)	3	0
CC(C)c1cccc(C(C)C)c1-n1c(C2C3CCCCC32)n[nH]c1=S (centres undefined)	-5	-8
NC(=O)c1ccc(-c2ccccc2CO)nc1	17	1
Nc1nc(N)nc(CN2CCCC(C(F)(F)F)C2)n1 (centres undefined)	0	8
CCCCS(=O)(=O)NC(C)C(=O)O (centres undefined)	-1	-2
O=C(O)COc1ccccc1CN1CC(c2ccccn2)C1	8	4
CC(C)c1nc(C2CC(=O)Nc3n[nH]c(-c4ccccc4)c32)co1 (centres undefined)	-2	-4
Cc1cnc(C)c(-c2cc(O)c3c(c2)CN(CC2CNC(=O)O2)CCO3)n1 (centres undefined)	2	1
C=C(C)CN1CCN(c2cc(C)nc3c4c(C)cc(C)nc4nn23)CC1	-3	20
COCC(=O)N1CCC(Oc2ccc(C(=O)NCc3ccc(C(=O)OC)cc3)cc2)CC1	18	9
CC(NC(=O)CNc1cc(F)cc(F)c1)c1ccccc1 (centres undefined)	11	7
Cn1nc(CC2CCN(C(=O)C3C=CCN3)CC2)n(-c2ccccc2)c1=O (centres undefined)	6	5
Cc1n[nH]c(C)c1CC(C)C(=O)O (centres undefined)	-3	-3
CCCn1nc(C(=O)N2CCCC2c2cccc(Br)c2)ccc1=O (centres undefined)	-2	-5
COc1cc(=O)n(-c2ccccc2C)nc1C(=O)Nc1c(C)cc(C)cc1C	-1	1
CC1(C(=O)NS(=O)(=O)c2cccs2)CCN1C(=O)Cc1cccc2ccccc12 (centres undefined)	5	3
O=C1/C(=C/c2ccccc2F)NC(=S)N1c1ccccc1	1	7
CCC1CN(C(=O)CCn2cnnn2)CCC(=O)N1Cc1ccccc1 (centres undefined)	4	-5
O=[N+]([O-])c1cccc(S(=O)(=O)N2CCCN(c3nc4ccccc4nc3-c3ccccc3)CC2)c1	27	27
N#CC(C=Nc1ccccc1)c1nc(-c2ccc(F)cc2)cs1 (centres undefined)	-2	-4
COCCCn1c(=O)c(C#N)cc2c(=O)n3cccc(C)c3nc21	4	3
S=c1[nH]nc(COc2ccccc2Cl)o1	-3	-12
NC(=O)C1CCN(C(=O)C2(c3ccc(Cl)cc3)CCCC2)CC1	-3	-3
OCc1ccnc(-c2ccc(O)cc2)c1	16	12
O=S(=O)(NC1c2cccc3cccc(c23)C1N1CCN(CCO)CC1)c1ccccc1 (centres undefined)	-1	-4
Cc1cc(C)c(NC(=O)CN2C(=O)CC(c3ccco3)Sc3ccccc32)c(C)c1 (centres undefined)	19	8
COc1ccc(OC)c2sc(N(CCCN3CCOCC3)C(=O)c3ccno3)nc12	1	23
O=C(c1nc2ccc(Cl)cn2c1CNCC[C@@H]1C[C@@H]2C=C[C@H]1C2)N1CCCCCCC1	2	0
Cc1[nH]c(=O)c(C#N)c(C)c1CCc1nc(-c2ccsc2)no1	6	2
COc1ccc(NS(=O)(=O)c2cc(C(=O)Nc3ccccc3)ccc2Cl)cc1	-5	-5
O=C(Nc1ccccc1I)c1ccc(CSC(F)F)o1	1	-2

At a glance, part of the list above.
SMILES	NPYLR7 agonist	NPYLR7 agonist max-min
Cn1nc(CC2CCN(C(=O)C3C=CCN3)CC2)n(-c2ccccc2)c1=O (centres undefined)	6	5
Cc1n[nH]c(C)c1CC(C)C(=O)O (centres undefined)	-3	-3
CCCn1nc(C(=O)N2CCCC2c2cccc(Br)c2)ccc1=O (centres undefined)	-2	-5
COc1cc(=O)n(-c2ccccc2C)nc1C(=O)Nc1c(C)cc(C)cc1C	-1	1
CC1(C(=O)NS(=O)(=O)c2cccs2)CCN1C(=O)Cc1cccc2ccccc12 (centres undefined)	5	3
O=C1/C(=C/c2ccccc2F)NC(=S)N1c1ccccc1	1	7
CCC1CN(C(=O)CCn2cnnn2)CCC(=O)N1Cc1ccccc1 (centres undefined)	4	-5
O=[N+]([O-])c1cccc(S(=O)(=O)N2CCCN(c3nc4ccccc4nc3-c3ccccc3)CC2)c1	27	27
N#CC(C=Nc1ccccc1)c1nc(-c2ccc(F)cc2)cs1 (centres undefined)	-2	-4
COCCCn1c(=O)c(C#N)cc2c(=O)n3cccc(C)c3nc21	4	3
S=c1[nH]nc(COc2ccccc2Cl)o1	-3	-12
NC(=O)C1CCN(C(=O)C2(c3ccc(Cl)cc3)CCCC2)CC1	-3	-3
OCc1ccnc(-c2ccc(O)cc2)c1	16	12
O=S(=O)(NC1c2cccc3cccc(c23)C1N1CCN(CCO)CC1)c1ccccc1 (centres undefined)	-1	-4
Cc1cc(C)c(NC(=O)CN2C(=O)CC(c3ccco3)Sc3ccccc32)c(C)c1 (centres undefined)	19	8

The listing continues:
SMILES	NPYLR7 agonist	NPYLR7 agonist max-min
COCc1c(Br)c(C)nc(OCC(=O)N/N=C\c2cccnc2)c1C#N	-7	-13
O=C1c2ccccc2-c2nnc(-c3ccccn3)cc21	13	7
Cc1ccc(S(=O)(=O)Nc2ccc(Nc3ccc(-n4nc(C)cc4C)nn3)cc2)cc1	-5	-12
O=C(Nc1ccc(-c2cccc(-c3ccc4c(c3)OCCO4)n2)cc1)C(F)(F)C(F)(F)C(F)(F)F	4	1
CCOC(=O)c1nn(-c2ccc(F)cc2)c(=O)cc1OS(=O)(=O)c1cc(C)c(C)cc1OC	6	3
COC(=O)CCN(C)C(=O)CNC(=O)c1ccsc1	5	4
CCOc1cc(C(=O)NCCc2csc3nc(-c4cccc(C)c4)nn23)cc(OCC)c1OCC	3	0
COCCN1C(=O)C(C)SC1c1ccccc1Cl (centres undefined)	-3	1
COc1cc(NC(=O)N2CCc3nc(Nc4cc(C)cc(C)c4)ncc3C2)cc(OC)c1OC	2	0
N#Cc1cc(Cc2ccc(N)c(C#N)c2)ccc1N	-11	-19
COc1ccc(S(=O)(=O)N(C)CCc2ccccc2)cc1N1CCN(S(=O)(=O)c2cccc(F)c2)CC1	16	5
CCOC(=O)c1cc(NC(=O)C2CCCCN2CC)cn1C (centres undefined)	-1	0
COc1ccc(C(=O)Nc2cc(C)on2)cc1[N+](=O)[O-]	-3	-5
Cc1cc(F)cc(-c2c(-c3ccccc3)ncn2CCCN2CCCC2=O)c1	0	-5
O=C(Nc1cccc(OC(F)(F)C(F)F)c1)c1sc2ccccc2c1Cl	-6	-9
O=C(NC1CC1)C1CCCN1c1ccc(C(F)(F)F)cn1 (centres undefined)	10	9

The list is partial (hit frequency here may not be typical).
